Lassa entry inh – qHTS for Inhibitors of binding or entry into cells for Lassa Virus. Lassa virus pseudotype entry inhibition, cell reporter; control for the full effect not named in the record. Potency, µM (titrated, usually from 37.9 µM), for the others: at the highest dose activity change, negative = inhibition, most hits filed as inhibitors. 300,000 tested, 1.2% active. AID 540256, 2011; active means well fitted inhibition curve with a large enough effect; inconclusive means small, poorly fitted or top-dose-only effect, or effect the other way; inactive means flat fitted curve, though single readings scatter; tested in HEK293 cells; note: % is set by controls: 0 for no effect and ±100 for the full control effect; nearly all actives have a fitted effect of over 50% in size; luciferase read-out
Marburg entry inh – qHTS for inhibitors of binding or entry into cells for Marburg Virus | Marburg virus pseudotyped entry inhibition, cell reporter; control for the full effect not named in the record; about a third of the inactives were read at about 46 µM | Potency, µM (titrated, usually from 37.8 µM), inactives show top-dose activity change, negative = inhibition, usual class: inhibitors | 300,000 tested, 1.8% active; active = well fitted inhibition curve with a large enough effect; inconclusive = small, poorly fitted or top-dose-only effect, or effect the other way; inactive = flat fitted curve, though single readings scatter; tested in HEK293 cells; about a fifth of its hits are not listed in these tables; note: % is set by controls: 0 for no effect and ±100 for the full control effect; luciferase read-out
NS1 function inh – qHTS Assay for Inhibitors of Influenza NS1 Protein Function. Potency, µM (highest dose often 46.1 µM), for inactives: at the highest dose activity, positive = more growth. 270,000 tested, 0.4% active. AID 2326, 2010. S. cerevisiae slowed by influenza A NS1, growth recovery by OD600; active means well fitted rising curve with a large enough effect; inconclusive means small, poorly fitted or top-dose-only effect; inactive means no such curve, though single readings can be large or run the other way; note: nearly all actives have a fitted effect of over 50% in size
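Read-out: OD600 growth recovery of NS1-expressing budding yeast. Cells grown overnight at 30C in -URA glucose medium, washed, resuspended and diluted 1:100 in 2% galactose assay medium, pH 6.0. Same strain lacking NS1 served as positive control.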
Cruzain noTriton – qHTS Assay for Promiscuous and Specific Inhibitors of Cruzain (without detergent) | AID 1476, 2009 | purified cruzain, Z-FR-AMC fluorescence, no detergent | 200,000 tested, 2.3% active | Cruzipain (Trypanosoma cruzi), P25779 | Potency, µM, without a hit: max response, negative = inhibition, actives largely listed as inhibitors;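 note: plate controls were enzyme without inhibitor for no effect and buffer without enzyme for full effect; nearly all actives have a fitted effect of over 40% in size; top concentration of the series not given in the record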
Target sequence (P25779 123-467 limits assumed): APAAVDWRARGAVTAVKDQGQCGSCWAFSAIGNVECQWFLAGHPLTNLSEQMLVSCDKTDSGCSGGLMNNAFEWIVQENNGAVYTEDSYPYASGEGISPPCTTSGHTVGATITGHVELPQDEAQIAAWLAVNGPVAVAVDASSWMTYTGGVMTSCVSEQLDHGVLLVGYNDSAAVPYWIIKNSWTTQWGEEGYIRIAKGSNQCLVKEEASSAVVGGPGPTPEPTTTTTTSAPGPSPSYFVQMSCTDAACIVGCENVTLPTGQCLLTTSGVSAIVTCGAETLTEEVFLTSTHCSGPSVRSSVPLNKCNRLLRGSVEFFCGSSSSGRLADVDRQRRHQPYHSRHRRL
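Detergent-free condition (0.00005% Triton X-100) in acetate buffer pH 5.5 with DTT. 1.5 nM enzyme and compound were pre-mixed 15 min, then 2 uM Z-FR-AMC substrate added; reaction progress from fluorescence change between first and third reads (60 s).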
StopGo reporter – High Throughput Screening for Foot and Mouth Disease Virus Antivirals. AID 1159524, 2015. 410,000 tested, 1.2% active. human cells with a luciferase reporter of 2A StopGo recoding; control for the full effect not named in the record. Potency, µM (highest dose often 57.9 µM), inactives show top-dose signal change, negative = less light; active = well fitted falling curve with a large enough effect; inconclusive = small, poorly fitted or top-dose-only effect; inactive = no such curve, though single readings can be large or run the other way; tested in HEK293T cells; note: % is set by controls: 0 for no effect and ±100 for the full control effect; nearly all actives have a fitted effect of over 45% in size; luciferase light after 4 h
Cruzain Triton – qHTS Assay for Promiscuous and Specific Inhibitors of Cruzain (with detergent); 200,000 tested, 0.43% active; Potency, µM, without a hit: max response, negative = inhibition, actives largely listed as inhibitors; AID 1478, 2009; Cruzipain (Trypanosoma cruzi), P25779; purified cruzain, Z-FR-AMC fluorescence, 0.01% Triton;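 note: plate controls were neutral wells for no effect and buffer without enzyme for full effect; nearly all actives have a fitted effect of over 40% in size; top concentration of the series not given in the record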
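Cruzain (1.5 nM) preincubated 15 min at RT with compound in 100 mM sodium acetate pH 5.5, 5 mM DTT, 0.01% Triton X-100. Reaction started with 2 uM Z-FR-AMC; AMC fluorescence (ex 360/em 450 nm) change over 60 s gave rate.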
SARS PLP yeast – qHTS of Yeast-based Assay for SARS-CoV PLP. S. cerevisiae expressing SARS-CoV PLpro, growth rescue; control for the full effect not named in the record. 330,000 tested, 0.19% active. AID 485353, 2010. Potency, µM (top dose mostly 32.9 µM), for the others: top-dose activity, positive = growth rescue; active means well fitted rising curve with a large enough effect; inconclusive means small, poorly fitted or top-dose-only effect; inactive means no such curve, though single readings can be large or run the other way; note: 0% is about no effect; nearly all actives have a fitted effect of over 55% in size; growth read by luminescence after 48 h
RE007 growth inh – qHTS Assay for Inhibitors of the HIV-1 protein Vpr | S. pombe RE007 Vpr strain, BacTiter-Glo ATP luminescence, 24 h; control for the full effect not named in the record | Potency, µM (series often up to 92.2 µM), for the others: at the highest dose activity change, negative = less growth | 360,000 tested, 0.21% active; active = well fitted falling curve with a large enough effect; inconclusive = small, poorly fitted or top-dose-only effect; inactive = no such curve, though single readings can be large or run the other way;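 note: % is set by controls: 0 for no effect and ±100 for the full control effect; nearly all actives have a fitted effect of over 50% in size; the assay follows cell death caused by Vpr and the record does not say whether a fall means rescue or toxicity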
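Fission yeast strain RE007, carrying one chromosomally integrated HIV-1 vpr copy, was seeded at OD 0.01 in PMG+AL medium with 23 nL pinned compound. After 24 h at 30 °C and 99% humidity, viability was read by BacTiter-Glo luminescence.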
Active calls of the source: *; ? = inconclusive; nt = not tested or not shown; & = joins results of further samples; [ ] = remark or other dose. Unless noted, calls come from the whole dose curve; as a rule, active = well fitted curve in the direction sought with a large enough effect; inconclusive = small, poorly fitted or top-dose-only effect, or another doubt; inactive = no such curve, though single readings can be large; an effect the other way counts as inactive or inconclusive. Potency is the fitted concentration of half-maximal effect.

SMILES	Lassa entry inh	Marburg entry inh	NS1 function inh	Cruzain noTriton	StopGo reporter	Cruzain Triton	SARS PLP yeast	RE007 growth inh
CCC(=O)c1ccc(OCC(=O)Nc2nn3cnnc3s2)cc1	?	?	4%	-11%	34%[activator]	-0.6%	-1%	8%
CN(C)S(=O)(=O)c1cccc(NC(=O)COC(=O)COc2ccc(Br)cc2)c1	nt	nt	-17%	nt	-12%	nt	1%	-1%
Cn1c(SCC2CCCO2)nnc1-c1cccc([N+](=O)[O-])c1 (configuration not stated)	3%[46.1 µM]	16%[46.1 µM]	-5%	nt	57%[activator]	nt	1%	-6%
O=C(O)CCC(=O)NN1C(=O)c2ccccc2NC1c1ccc(F)cc1 (configuration not stated)	5%	-6%[46.1 µM]	3%	nt	-10%	nt	0%	2%
Cc1ccc2nc(SCc3nc(-c4ccccc4C)no3)[nH]c2c1	0%[46.1 µM]	-8%[46.1 µM]	nt	-7%	-24%	-24%	nt	nt
CCCNC1(C(N)=O)CCN(Cc2ccccc2)CC1	0%[46.1 µM]	0%[46.1 µM]	nt	nt	-17%	nt	nt	-8%
O=C(CNC(=O)c1ccc(Cl)cc1)NNC(=O)c1ccc(Br)cc1	3%	10%	nt	nt	-4%	nt	3%	15%
CCNC(=O)CCS(=O)(=O)c1ccc2ccccc2c1	1%	-2%	5%	-7%	12%	-2.4%	4%	-3%
CCCc1nc2ccccc2c(C(=O)OCC(=O)NCc2ccco2)c1CC	-24%	-22%	-12%	-10%	?	-5.5%	-1%	11%
CCOC(=O)c1c(-n2c(C)cc(C=O)c2C)sc2c1CCCC2	9.2µM*	12µM*	-68%	0%	0%	6.4%	-12%	-7%
CCCCOc1ccc(C(=O)NCC(=O)NC2CCC(C)CC2)cc1 (configuration not stated)	-2%	?	nt	nt	-15%	nt	-12%	-8%
CCOC(=O)C1(Cc2ccc(OC)cc2)CCN(C(=O)c2cc3ccccc3[nH]2)CC1	-16%[46.1 µM]	?	nt	nt	22%	nt	-4%	-27%
O=C(NCC1CCCO1)/C(=C\c1ccco1)NC(=O)c1ccc(Cl)cc1 (configuration not stated)	3%	?	-1%	nt	-10%	nt	0%	-7%
CN(CC(=O)Nc1c(Cl)cccc1Cl)C(=O)CC1Sc2ccccc2NC1=O (configuration not stated)	2%[46.1 µM]	-8%	nt	nt	-1%	nt	0%	12%
O=C(NC1CCCCCCC1)c1cccs1	-1%[46.1 µM]	?	-43%	nt	22%	nt	-5%	?
CCCCCCC(=O)Nc1nc(C)c(-c2csc(Nc3cc(Cl)ccc3C)n2)s1	nt	nt	?	10µM*	-8%	3.2%	-4%	0%
COc1ccc(OC)c(NC(=O)COc2coc(CN3CCCc4ccccc43)cc2=O)c1	3%	?	nt	nt	?	nt	-1%	3%
CCOC(=O)NC(C(F)(F)F)(C(F)(F)F)P(=O)(c1ccccc1)c1ccccc1	4%	-2%&2%	0%	-10%	-17%	1.8%	-4%	-10%
COc1ccc(-c2c(C)nn3c(-c4ccccc4)cc(C)nc23)cc1OC	-1%[46.1 µM]	-2%[46.1 µM]	nt	-7%	?	-0.4%	nt	nt
COc1ccc2nc(NC(=O)CSc3nc4cccnc4n3C)sc2c1	?	?	-3%	?	-19%	6.6%	3%	1%
CN1CCc2c(sc3c2c(=O)n(-c2ccc(Cl)cc2)c2nncn32)C1	-4%	-2%&-2%	14%	-2%	-9%	0.5%	-3%	-16%
CC(C)C[C@H]1CN=C(Nc2ccccc2)N1CC1CCCC1	nt	nt	5%	nt	-16%	nt	6%	-2%
O=C(OCC(=O)N1CCOCC1)c1ccccc1OCc1ccccc1Cl	?	13%[46.1 µM]	nt	nt	-7%	nt	-12%	-14%
COC(=O)C1(Cc2ccccc2)NC(c2ccc(F)cc2)C2C(=O)N(C)C(=O)C21 (configuration not stated)	16%	4%	11%	-6%	-17%	-2.7%	5%	7%
Cc1cccc2nc(C(F)(F)F)nc(=O)n12	20%	23%	3%	0%	-5%	3.2%	2%	18%
Cc1ccc(-n2ncc3c(=O)[nH]c(SC(C)C)nc32)cc1	6%	-10%	-11%	6%	-20%	-0.4%	-8%	-24%
COc1ccc(CC(=O)NNC(=O)c2c(-c3ccccc3Cl)noc2C)cc1OC	?	-18%	0%	nt	-4%	nt	0%	9%
Cc1cc(C)n(C(=O)CNC(=O)c2cccc(F)c2)n1	-8%[46.1 µM]	-13%[46.1 µM]	-4%	nt	34%[activator]	nt	-4%	-2%
Cc1ccc(NC(=O)COC(=O)/C=C/c2ccco2)cc1S(=O)(=O)N(C)C	10%	-9%	6%	3%	56%[activator]	-7.7%	-10%	nt
CCCCN(CCCC)S(=O)(=O)c1ccc(C(=O)Nc2nnc(CSC)o2)cc1	?	?	-8%	?	-16%	1.4%	-5%	23%
COc1ccc(C(=O)Nc2c(N)nc(SCC(=O)Nc3ccc(NC(C)=O)cc3)[nH]c2=O)cc1	9%	-2%	9%	nt	-6%	nt	3%	2%
CC1(C)NC(=O)N(CC(O)CN(c2ccccc2)S(=O)(=O)c2ccccc2[N+](=O)[O-])C1=O (configuration not stated)	-8%	-2%[46.1 µM]	0%	nt	28%	nt	-3%	-10%
O=C(Nc1ccc(F)c(Cl)c1)c1ccc2c(Cl)c3c(nc2c1)CCCC3	12%[46.1 µM]	?	nt	4%	11%	1.7%	nt	nt
CCOC(=O)CC1C(=O)NCCN1S(=O)(=O)c1ccc(F)cc1 (configuration not stated)	20%[46.1 µM]	3%[46.1 µM]	0%	nt	-10%	nt	15%	5%
O=C(Cc1ccccc1[N+](=O)[O-])Nc1cccc(S(=O)(=O)NC2=NCCCCC2)c1	13%	0%	nt	nt	4%	nt	0%	6%
COc1ccc(/C=C2/SC(=S)N(CCC(=O)N3CCN(C)CC3)C2=O)cc1	?	?	-10%	nt	17%	nt	4%	-8%
Cc1ccc(S(=O)(=O)N2CCOCC2)cc1C(=O)N1CCN(S(=O)(=O)c2cccs2)CC1	nt	nt	-15%	nt	-15%	nt	1%	1%
COc1ccc(S(=O)(=O)N(C)CC(=O)Nc2ccc3c(c2)OCCO3)cc1OC	-3%	-11%&-11%	-4%	-3%	-27%	2.5%	0%	-4%
CCc1nc(N2CCN(C(=O)c3ccco3)CC2)c2c3c(sc2n1)CCCC3	?	?	-8%	11%	?	-5.6%	-13%	22%
Cc1ccc(O)c(-c2cc(C(F)(F)C(F)F)[nH]n2)c1	-15%	-17%	-98%	-2%	-28%	-6.3%	-12%	2%
COc1cccc(CN2CC(C(=O)N3CCOCC3)CCC2=O)c1 (configuration not stated)	nt	nt	-12%	nt	23%	nt	0%	6%
O=C(NNS(=O)(=O)c1ccccc1[N+](=O)[O-])c1cccc([N+](=O)[O-])c1	18%	-13%	2%	9%	16%	-1.3%	-3%	1%
CCO[C@@H]1OC(C(=O)N2CCN(C)CC2)=C[C@H](C(C)(C)C)[C@H]1CCCO	nt	nt	-3%	nt	0%	nt	0%	-1%
O=[N+]([O-])c1cc(S(=O)(=O)N2CCOCC2)ccc1OCc1cccc(Cl)c1	2%	?	nt	nt	7%	nt	-5%	0%
CC1CCCC(NC(=O)c2ccncc2)C1C (configuration not stated)	nt	nt	-6%	nt	-12%	nt	?	0%
Cc1ccc(C(=O)N2CCn3c(C)ccc3C2C)cc1 (configuration not stated)	10%	10%[46.1 µM]	nt	nt	-20%	nt	-4%	23%
CC(=O)c1ccc(Cc2ccccc2)cc1	4%[46.1 µM]	11%[46.1 µM]	nt	nt	-5%	nt	5%	22%
COc1ccc(C(=O)Oc2c(CN3CCOCC3)cc(Cl)c3cccnc23)cc1	-22%	?	-22%	?	-24%	-0.2%	-2%	-24%
CCCn1nc(Oc2nc(NCC)nc(NC(C)C)n2)ccc1=O	3%	-7%	17%	-6%	16%	15%	3%	-9%
CN1CCN(S(=O)(=O)c2ccc(N3CCN(C(=O)c4ccccc4)CC3)nc2)CC1	-10%[46.1 µM]	2%[46.1 µM]	nt	nt	-25%	nt	0%	2%
O=C(NNS(=O)(=O)c1ccc(Br)cc1)c1csnn1	-25%[46.1 µM]	-13%[46.1 µM]	nt	nt	-16%	nt	9%	25%
CCCN1CCN(CCCNC(=O)c2cc3c(=O)oc4ccc(C)cc4c3s2)CC1	nt	nt	1%	nt	-6%	nt	-1%	0%
O=C(COc1ccc(Cl)cc1)OCC(=O)N1CCCC1	4%	19%	-46%	-6%	-7%	0.8%	-10%	-3%
CCOc1ccc(NC(=S)NN2CCN(C)CC2)cc1	10%	9%	-8%	-10%	-10%	-2.1%	20%	-2%
CCN1CCN(c2cc(C)c3cc(NC(=O)c4ccc(C)c(C)c4)ccc3n2)CC1	nt	nt	3%	nt	0%	nt	0%	-23%
COc1cccc(C(=O)Nc2nnc(-c3ccc(F)cc3)o2)c1	nt	nt	-92%	nt	25%	nt	-8%	-3%
CCOc1ccc(=O)n(-c2ccccc2)n1	-3%	9%	3%	10%	2%	-0.4%	-5%	7%
Fc1cccc(NC(=S)NCc2ccc(Cl)cc2)c1	3%	-26%	-32%	2%	33%[activator]	-3.4%	-43%	nt
Cc1cc(C)c(/C=C/c2onc(C)c2S(=O)(=O)N2CCC(C(=O)Nc3cccc(C)c3C)CC2)c(C)c1	4%[46.1 µM]	nt	nt	-3%	-8%	-0.2%	nt	nt

Assay outcomes from PubChem.
